# Arbovirus inh: antivirals against arbovirus infection; arbovirus infection cell-based antiviral screen; inhibition, % at 10 µM; hit rate 0.37% among 200,000; AID 1251;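 active means inhibition from about 30%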;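 further: bluetongue infection of BSR cells; cell survival read as ATP light after 72 h; 0% = infected wells without compound and 100% = uninfected wells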
# Mtb growth: M. tuberculosis H37Rv growth inhibitors, H37Rv strain (AID 1626); hit rate 0.95% among 220,000; one-dose inhibition, % at 10 µM; IC50 in µM for titrated hits; M. tuberculosis H37Rv growth inhibition; higher % means a stronger effect;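 active means confirmed in a dose series; inconclusive means inhibition above 80% but not taken into the dose series; inactive means below 80% or under 30% at every dose of the series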;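 further: bacteria incubated seven days before Alamar blue readout; 0% = bacteria only wells and 100% = bacteria with antibiotic wells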
# YopH inh: YopH (Yersinia) phosphatase inhibition | fluorescence Ex485/Em525 | AID 898 | hit rate 0.16% among 140,000 | inhibition, %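 (about 10 µM by stock and volumes)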;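 active means inhibition of 50% or more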;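 further: controls were vehicle for no effect and minimum signal wells for full effect; inactives centre near -20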
# Mtb betalactam: beta-lactam sensitization of Mtb H37Rv. inhibition, % at 25 µM. hit rate 0.27% among 330,000. AID 434955. M. tuberculosis H37Rv growth with meropenem, percent inhibition; hits of this screen are not shown here;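 active means about 74% or more and at least 40 points above the plate without the antibiotic, then above 30% in a dose series; inconclusive means first-round hits that could not be retested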;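 further: growth measured after seven days incubation then overnight dye step; 0% = bacteria only wells and 100% = bacteria with antibiotic; twin plates without the antibiotic show which effects depend on it; some results filed as inactive read as strong as hits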
# RecA splice inh: Mtb RecA intein splicing inhibition; P9WHJ3; cell-free RecA intein splicing, fluorescence; inhibition, %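 (about 9 µM by stock and volumes)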; hit rate 0.75% among 290,000; AID 2221; in the data active means inhibition above about 30%; inconclusive means no clear call, values can overlap the other calls;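 further: 0% = vehicle wells and 100% = reference inhibitor control wells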
# Target sequence (P9WHJ3 whole entry, looked up, canonical isoform): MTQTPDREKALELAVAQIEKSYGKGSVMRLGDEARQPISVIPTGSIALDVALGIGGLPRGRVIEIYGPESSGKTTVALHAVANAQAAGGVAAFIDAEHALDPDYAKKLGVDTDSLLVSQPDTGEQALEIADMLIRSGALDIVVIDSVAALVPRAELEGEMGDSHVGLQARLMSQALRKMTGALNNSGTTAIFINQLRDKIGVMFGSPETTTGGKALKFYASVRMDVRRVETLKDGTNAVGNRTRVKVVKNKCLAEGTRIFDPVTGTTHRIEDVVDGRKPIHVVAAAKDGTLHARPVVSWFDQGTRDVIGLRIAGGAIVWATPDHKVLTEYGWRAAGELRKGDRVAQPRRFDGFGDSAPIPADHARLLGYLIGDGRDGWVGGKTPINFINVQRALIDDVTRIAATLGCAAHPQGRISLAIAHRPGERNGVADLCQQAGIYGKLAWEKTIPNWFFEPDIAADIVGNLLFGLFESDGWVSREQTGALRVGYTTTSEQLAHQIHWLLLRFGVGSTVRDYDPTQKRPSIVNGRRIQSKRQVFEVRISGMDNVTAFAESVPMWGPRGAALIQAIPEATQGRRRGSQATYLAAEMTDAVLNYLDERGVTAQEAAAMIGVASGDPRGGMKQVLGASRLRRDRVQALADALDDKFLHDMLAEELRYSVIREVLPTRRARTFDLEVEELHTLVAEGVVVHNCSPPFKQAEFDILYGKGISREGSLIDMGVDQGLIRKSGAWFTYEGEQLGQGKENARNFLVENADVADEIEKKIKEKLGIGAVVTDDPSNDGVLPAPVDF
# Arbovirus inh repeat: recorded beside Arbovirus inh, whose call it bears; inhibition, %; measured here: 10K subset replicate screen; many hits read low in the repeat;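 first of two repeat runs on a subset; 0% = infected and 100% = uninfected wells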
# Starred values were filed as active, the others as inactive; ? = inconclusive; nt = no result given. Only part of the results is shown (hit frequency here may not be typical).
SMILES,Arbovirus inh,Mtb growth,YopH inh,Mtb betalactam,RecA splice inh,others
O=C(O)C1CC(=O)n2c(nc3ccccc32)S1 (stereo unspecified),1,-2%,-49,-19,-1.6,
CCCCn1c(=S)[nH]c2ccc(N3CCOCC3)cc2c1=O,-17,4%,nt,-4,-31,
O=C(Cn1nnc(-c2ccc(F)cc2)n1)N1CCCCC1,-1,-11%,nt,-10,-0.9,
Cc1ccccc1CS(=O)(=O)CCC(=O)NCCCN1CCN(c2ccccc2F)CC1,-1,-6%,-41,-18,-1.5,
Cc1cc2cc(CNC(=O)COc3ccccc3)ccc2n1C,nt,7%,nt,6,-1.7,
C=CCOc1cccc(C(=O)N2CCCC(CCC(=O)NCc3ccccc3F)C2)c1 (stereo unspecified),14,4%,nt,41,0.7,
C=CCc1ccc(OCC(O)CN2CCN(c3ccccc3OC)CC2)c(OC)c1 (stereo unspecified),nt,nt,nt,-1,3.7,
Cc1nc2ccccc2c(=O)n1-c1ccncc1,nt,15%,nt,-6,0.8,
Cc1cc(C)cc(NC(=O)CCn2c(=S)[nH]c3ccccc3c2=O)c1,nt,nt,nt,1,-1.8,
Fc1ccc(-n2nnc(-c3cccnc3Cl)n2)cc1,5,-14%,nt,0,-0.1,
CN(C[C@H](Cc1ccccc1)N(C[C@H](Cc1ccccc1)N(CCc1cc(C(F)(F)F)cc(C(F)(F)F)c1)N=O)N=O)N=O,2,9%,nt,4,0.3,
CC(NC(=O)/C(=C\c1ccco1)NC(=O)c1ccccc1Br)C(=O)O (stereo unspecified),-1,-1%,nt,-8,-2.2,
COc1ccc(C2C=C(c3ccccc3)Nc3nc(NC(C)=O)nn32)cc1 (stereo unspecified),2,-11%,-17,-3,-196,
CCOC(=O)c1c(NC(=O)OC)sc(C(=O)N(C)C)c1C,-4,3%,-14,-2,-0.9,
O=S(=O)(/N=C(/Nc1ccccn1)c1ccccc1)c1ccccc1,1,5%,-53,-2,1.3,
Cc1ccc(-n2cc(C(=O)c3cc(Cl)ccc3O)cc(C#N)c2=O)cc1,1,3%,-20,18,3.2,
O=C1C(C=NCCCn2ccnc2)=C(O)c2ccccc21,nt,-7%,2,12,nt,
CC1CCCCN1CC(=O)Nc1cc(S(=O)(=O)N2CCOCC2)ccc1N1CCCC1 (stereo unspecified),4,-2%,nt,-17,-1.8,
COC(=O)c1[nH]c2ccc(C)cc2c1NC(=O)Nc1ccccc1OC,-8,3%,12,11,-0.1,
CC(C)(C)NC(=O)Cn1nc(C(F)(F)F)c2c1CCCC2,3,-5%,nt,1,0.1,
NNC(=O)CCN(Cc1ccco1)S(=O)(=O)c1ccc(Cl)cc1,nt,-8%,nt,-3,2.5,
C1=C(C(c2nnnn2C2CCCCC2)N2CCCCC2)COc2ccccc21 (stereo unspecified),2,-7%,-20,-4,0.5,
O=C(COc1ccccc1Cl)N1CCN(c2ccccn2)CC1,nt,nt,nt,0,-1.5,
CN1CCN(C(=O)C2=C[C@H](c3csc4ccccc34)C[C@H](OCCCCO)O2)CC1,-2,-7%,nt,-6,0.0,
Cc1ccc(Nc2nnc(SCC(=O)Nc3cccc(S(=O)(=O)NC4=NCCCCC4)c3)s2)cc1,-8,-5%,-11,-6,-0.9,
CCCCOc1ccc(NC(=O)CCSc2nccn2C)cc1,-7,2%,nt,-13,-6.2,
Nc1ccn(Cc2ccccc2)n1,3,3%,nt,0,-1.9,
CC(=N\Nc1ccc(Cl)cc1)/C(=N/O)C(=O)Nc1ccccc1,-3,1%,-45,4,3.1,
O=C(CN1C(=O)S/C(=C\c2ccccc2F)C1=O)NCCCn1ccnc1,nt,nt,nt,-3,-0.6,
C(=N\NC1=Nc2cccc3cccc1c23)/c1ccccn1,-11,?,nt,nt,-7.0,
Cn1cc(C(=O)NCc2ccc(F)cc2)c(=O)c2cc(S(=O)(=O)N3CCCCC3)ccc21,-1,2%,-10,42,2.2,
CCc1nc2ccc(C(=O)N3CCN(c4ccc(Cl)cc4)CC3)cc2nc1CC,nt,nt,nt,69,9.4,
CCN(CC)CCn1c(C)nc2c(sc3nc4c(cc32)COC(C)(C)C4)c1=O,nt,-1%,nt,-2,1.0,
Cc1ccc(C(=O)Nc2nnc(-c3cccs3)s2)cc1C,-2,nt,-10,-8,-1.3,
CCn1cc(C(=O)OCC(=O)NCc2ccccc2Cl)c(=O)c2ccc(C)nc21,0,9%,nt,-2,-1.0,
Cc1cc(C(=O)Nc2ccc(CC(=O)O)cc2)c(C)o1,nt,nt,nt,2,-1.3,
O=C(c1ccco1)c1cn(CC(=O)N2CCCc3ccccc32)c2ccccc12,2,-2%,-27,-19,6.1,
Cc1cccc(N2CCN(S(=O)(=O)c3ccc4c(c3)CCCN4C(=O)C3CCC3)CC2)c1C,nt,nt,nt,1,5.2,
Cc1ccc(S(=O)(=O)/N=S(/c2ccccc2)C(C)C)cc1 (stereo unspecified),nt,-14%,nt,0,-1.2,
O=C(CN1CC(=O)Oc2ccccc21)OCC(=O)c1ccc(Br)cc1,nt,-10%,-19,5,0.0,
CCOCCCn1c(SCc2nc3ccccc3s2)nc2ccccc2c1=O,11,16%,-29,2,-9.8,
COc1ccc(C(=O)N/C(=C\c2cccc3ccccc23)C(=O)NCCc2c[nH]c3ccccc23)cc1OC,-17,6%,13,-4,7.6,
CCCCNC(=S)NCCN1CCN(C(=S)NCCCC)CC1,9,-3%,nt,13,2.8,
O=C(O)CSCC(=O)NCc1ccccc1Cl,-3,-5%,nt,1,1.0,
CN(C)C(=O)On1c(-c2ccccc2)nc2ccc(Cl)cc21,9,-2%,-19,-9,0.8,
Cc1ccc(NC(=O)Cc2ccccc2Cl)cc1S(=O)(=O)N(C)C,2,5%,-21,0,1.7,
COc1ccc(CNc2ncc(-c3ccc(Cl)cc3)n2C)c(OC)c1OC,nt,nt,nt,0,3.0,
O=S(=O)(Cc1ccccc1)N1CCc2ccccc2C1,-3,0%,-25,-3,0.3,Arbovirus inh repeat=-1
Cc1ccc2[nH]c(=O)c(C(c3nnnn3CCc3ccccc3)N3CCOCC3)cc2c1 (stereo unspecified),2,-1%,18,-5,-1.5,
CCOc1ccc2oc(C(=O)NC3CCN(Cc4ccccc4)CC3)c(C)c2c1,3,7%,nt,-2,-2.4,
COc1ccc(CCNS(=O)(=O)c2ccc(Cl)cc2)cc1OC,nt,nt,nt,-6,1.0,
COC(=O)CC(=O)CSc1nc2c(cc1C#N)CCCCC2,-19,2%,-16,9,nt,
O=C(COc1ccccc1)N1CCN(C(=O)c2ccccc2F)CC1,nt,nt,nt,-3,0.1,
O=C(CSc1nnc(CNC(=O)c2ccco2)o1)NC1CCCC1,2,6%,-13,1,1.0,
CCOCCCNc1c(CC)c(C)c(C#N)c2nc3ccccc3n12,nt,nt,nt,4,-22,
COc1cccc(/C=C2\SC(=S)N(C(C)C(=O)NC3C=CS(=O)(=O)C3)C2=O)c1 (stereo unspecified),nt,nt,nt,0,1.0,
CC(=O)OCCCN1c2ccccc2Nc2nnc(-c3ccccc3)cc21,-17,>100µM*,1,-4,-0.8,
Cc1ccc(CNC(=O)c2cc3ccccc3oc2=O)cc1,nt,nt,nt,14,-0.1,
Cc1cc(C)nc(NS(=O)(=O)c2ccc(NC(=O)CSc3ncn[nH]3)cc2)n1,20,7%,nt,-2,3.0,
CCN(CC)C(=O)CSc1nnc(-c2cccs2)n1Cc1ccco1,4,8%,0,-12,1.6,

# Filtered by structure, the entries above with bromine.
SMILES,Arbovirus inh,Mtb growth,YopH inh,Mtb betalactam,RecA splice inh,others
CC(NC(=O)/C(=C\c1ccco1)NC(=O)c1ccccc1Br)C(=O)O (stereo unspecified),-1,-1%,nt,-8,-2.2,
O=C(CN1CC(=O)Oc2ccccc21)OCC(=O)c1ccc(Br)cc1,nt,-10%,-19,5,0.0,

# Following part
SMILES,Arbovirus inh,Mtb growth,YopH inh,Mtb betalactam,RecA splice inh,others
COc1ccc(/C(C)=N/NC(=O)Cc2c(C)nc(C)[nH]c2=O)cc1,-1,5%,-59,-3,0.7,
O=C(CCS(=O)(=O)Cc1ccccc1F)NCCc1ccc(Cl)cc1,nt,nt,nt,-1,1.3,
N#Cc1ccc(NC(=O)COC(=O)CCc2nc3ccccc3c(=O)[nH]2)cc1,nt,-11%,nt,-6,-0.6,
Cc1ccc(-c2nc3ccccc3o2)cc1NC(=S)NC(=O)c1cc2ccccc2o1,-22,-1%,-24,2,-1.7,
COC(CNC(=O)c1c[nH]c2ccc(S(=O)(=O)N3CCC4(CC3)OCCO4)cc2c1=O)OC,2,4%,-8,-4,-1.9,
COc1cccc(CCNC(=O)COc2cccc3c2OC(C)(C)C3)c1,nt,nt,nt,4,0.6,
C=CC(C)(C)c1cc2cc3ccoc3cc2oc1=O,0,2%,-29,54,1.0,
Cc1nc(N2CCN(c3ccccc3)CC2)[nH]c(=O)c1Cc1cccc2ccccc12,-9,nt,-26,-3,0.9,
COc1ccc(/C=C/CN2CCN(Cc3ccc(C)cc3)C(CCO)C2)cc1 (stereo unspecified),-6,4%,nt,2,-0.2,
O=C(NCC1CCN(Cc2cccc(Cl)c2)CC1)Nc1ccc(Cl)cc1,nt,nt,nt,8,1.7,
O=C(C[n+]1ccccc1)Nc1ccccc1Br,-4,3%,nt,1,1.8,
CCCOC(=O)Nc1nnc(CCC)s1,2,-3%,-16,-7,2.2,
CC1CCN(C(=O)CSCC(=O)O)CC1,2,-1%,nt,5,-4.1,
CC1CCN(S(=O)(=O)c2cc3c4c(c2)CCN4C(=O)CC3)CC1,nt,nt,nt,-10,-0.5,
CC(=O)Nc1ccc(NC(=O)C2CCCN2C(=O)NC2CCCCC2)cc1 (stereo unspecified),nt,nt,nt,-1,-0.8,

# Filtered by structure: the compounds so far with an aryl methoxy group
SMILES,Arbovirus inh,Mtb growth,YopH inh,Mtb betalactam,RecA splice inh,others
C=CCc1ccc(OCC(O)CN2CCN(c3ccccc3OC)CC2)c(OC)c1 (stereo unspecified),nt,nt,nt,-1,3.7,
COc1ccc(C2C=C(c3ccccc3)Nc3nc(NC(C)=O)nn32)cc1 (stereo unspecified),2,-11%,-17,-3,-196,
COC(=O)c1[nH]c2ccc(C)cc2c1NC(=O)Nc1ccccc1OC,-8,3%,12,11,-0.1,
COc1ccc(C(=O)N/C(=C\c2cccc3ccccc23)C(=O)NCCc2c[nH]c3ccccc23)cc1OC,-17,6%,13,-4,7.6,
COc1ccc(CNc2ncc(-c3ccc(Cl)cc3)n2C)c(OC)c1OC,nt,nt,nt,0,3.0,
COc1ccc(CCNS(=O)(=O)c2ccc(Cl)cc2)cc1OC,nt,nt,nt,-6,1.0,
COc1cccc(/C=C2\SC(=S)N(C(C)C(=O)NC3C=CS(=O)(=O)C3)C2=O)c1 (stereo unspecified),nt,nt,nt,0,1.0,
COc1ccc(/C(C)=N/NC(=O)Cc2c(C)nc(C)[nH]c2=O)cc1,-1,5%,-59,-3,0.7,
COc1cccc(CCNC(=O)COc2cccc3c2OC(C)(C)C3)c1,nt,nt,nt,4,0.6,
COc1ccc(/C=C/CN2CCN(Cc3ccc(C)cc3)C(CCO)C2)cc1 (stereo unspecified),-6,4%,nt,2,-0.2,

# Carrying on.
SMILES,Arbovirus inh,Mtb growth,YopH inh,Mtb betalactam,RecA splice inh,others
O=C(COc1ccc(S(=O)(=O)NC2CCCCC2)cc1Cl)NCc1cccnc1,11,-2%,-25,-13,0.3,
Cc1ccc(C)c(-c2csc(NC(=O)C3=COCCO3)n2)c1,nt,nt,nt,11,0.8,
FC(F)(F)c1ccc(/C=N/N2CCN(Cc3cccc4ccccc34)CC2)cc1,11,-9%,-33,85,2.8,
N#Cc1c(OCC(=O)c2ccccc2)nc2c(c1-c1ccco1)CCc1ccccc1-2,-12,2%,-25,-4,3.8,
COc1ccc(S(=O)(=O)Oc2ccc3cccc(N)c3c2)cc1,nt,nt,nt,0,-5.9,
Cc1ccccc1N1CCN(C2CCCN(C(=O)CCC(F)(F)F)C2)CC1 (stereo unspecified),nt,nt,nt,-3,-1.1,
C=C(C)CNC(=S)N/N=C(\C)c1ccc(OC)cc1,-3,7%,-1,94,-0.1,
Oc1ccc2ccccc2c1C=NC1CCCCC1,1,4%,nt,4,2.9,
CCCCn1c(SC(C)C(=O)c2ccc(OC)cc2)nc2cc(S(N)(=O)=O)ccc21 (stereo unspecified),-16,-6%,1,1,1.6,
CCN(CC)Cc1c(O)ccc2occ(C(=O)c3ccccc3)c12,nt,nt,nt,0,4.7,
O=C(CCc1ccccc1)NNc1ccc(F)cc1,nt,75%,nt,96,-1.7,
COc1ccc(NC(=S)N2CCN(S(=O)(=O)c3ccc(F)cc3)CC2)cc1OC,nt,nt,nt,0,0.0,
Cc1ccc(S(=O)(=O)N2CCN(Cc3cc(C(C)C)ccc3O)CC2)cc1,30*,0%,-30,?,nt,
COc1ccc(NS(=O)(=O)c2ccc(OCC(=O)N3CCOCC3)cc2)cc1Cl,nt,nt,nt,-6,-1.5,
FC(F)(F)c1cccc(CN2CCCCCC2)c1,-2,-5%,-7,-6,6.6,
